nsP2pro primary – Primary qHTS for inhibitors of NSP2Pro chikungunya virus (CHIKV); FRET peptide cleavage, nsP2pro, fluorescence 1 h; Polyprotein P1234 (Chikungunya virus (strain S27-African prototype)), Q8JUX6; Potency, µM (doses to about 24.9 µM), for inactives: at the top dose activity change, negative = inhibition, actives largely listed as inhibitors; 31,000 compounds, 1.1% hits; active means well fitted inhibition curve with a large enough effect; inconclusive means small, poorly fitted or top-dose-only effect; inactive means no such curve, though single readings can be large or run the other way; note: nearly all actives have a fitted effect of over 60% in size; a reference inhibitor and vehicle were the controls
Target sequence (Q8JUX6 whole entry, looked up): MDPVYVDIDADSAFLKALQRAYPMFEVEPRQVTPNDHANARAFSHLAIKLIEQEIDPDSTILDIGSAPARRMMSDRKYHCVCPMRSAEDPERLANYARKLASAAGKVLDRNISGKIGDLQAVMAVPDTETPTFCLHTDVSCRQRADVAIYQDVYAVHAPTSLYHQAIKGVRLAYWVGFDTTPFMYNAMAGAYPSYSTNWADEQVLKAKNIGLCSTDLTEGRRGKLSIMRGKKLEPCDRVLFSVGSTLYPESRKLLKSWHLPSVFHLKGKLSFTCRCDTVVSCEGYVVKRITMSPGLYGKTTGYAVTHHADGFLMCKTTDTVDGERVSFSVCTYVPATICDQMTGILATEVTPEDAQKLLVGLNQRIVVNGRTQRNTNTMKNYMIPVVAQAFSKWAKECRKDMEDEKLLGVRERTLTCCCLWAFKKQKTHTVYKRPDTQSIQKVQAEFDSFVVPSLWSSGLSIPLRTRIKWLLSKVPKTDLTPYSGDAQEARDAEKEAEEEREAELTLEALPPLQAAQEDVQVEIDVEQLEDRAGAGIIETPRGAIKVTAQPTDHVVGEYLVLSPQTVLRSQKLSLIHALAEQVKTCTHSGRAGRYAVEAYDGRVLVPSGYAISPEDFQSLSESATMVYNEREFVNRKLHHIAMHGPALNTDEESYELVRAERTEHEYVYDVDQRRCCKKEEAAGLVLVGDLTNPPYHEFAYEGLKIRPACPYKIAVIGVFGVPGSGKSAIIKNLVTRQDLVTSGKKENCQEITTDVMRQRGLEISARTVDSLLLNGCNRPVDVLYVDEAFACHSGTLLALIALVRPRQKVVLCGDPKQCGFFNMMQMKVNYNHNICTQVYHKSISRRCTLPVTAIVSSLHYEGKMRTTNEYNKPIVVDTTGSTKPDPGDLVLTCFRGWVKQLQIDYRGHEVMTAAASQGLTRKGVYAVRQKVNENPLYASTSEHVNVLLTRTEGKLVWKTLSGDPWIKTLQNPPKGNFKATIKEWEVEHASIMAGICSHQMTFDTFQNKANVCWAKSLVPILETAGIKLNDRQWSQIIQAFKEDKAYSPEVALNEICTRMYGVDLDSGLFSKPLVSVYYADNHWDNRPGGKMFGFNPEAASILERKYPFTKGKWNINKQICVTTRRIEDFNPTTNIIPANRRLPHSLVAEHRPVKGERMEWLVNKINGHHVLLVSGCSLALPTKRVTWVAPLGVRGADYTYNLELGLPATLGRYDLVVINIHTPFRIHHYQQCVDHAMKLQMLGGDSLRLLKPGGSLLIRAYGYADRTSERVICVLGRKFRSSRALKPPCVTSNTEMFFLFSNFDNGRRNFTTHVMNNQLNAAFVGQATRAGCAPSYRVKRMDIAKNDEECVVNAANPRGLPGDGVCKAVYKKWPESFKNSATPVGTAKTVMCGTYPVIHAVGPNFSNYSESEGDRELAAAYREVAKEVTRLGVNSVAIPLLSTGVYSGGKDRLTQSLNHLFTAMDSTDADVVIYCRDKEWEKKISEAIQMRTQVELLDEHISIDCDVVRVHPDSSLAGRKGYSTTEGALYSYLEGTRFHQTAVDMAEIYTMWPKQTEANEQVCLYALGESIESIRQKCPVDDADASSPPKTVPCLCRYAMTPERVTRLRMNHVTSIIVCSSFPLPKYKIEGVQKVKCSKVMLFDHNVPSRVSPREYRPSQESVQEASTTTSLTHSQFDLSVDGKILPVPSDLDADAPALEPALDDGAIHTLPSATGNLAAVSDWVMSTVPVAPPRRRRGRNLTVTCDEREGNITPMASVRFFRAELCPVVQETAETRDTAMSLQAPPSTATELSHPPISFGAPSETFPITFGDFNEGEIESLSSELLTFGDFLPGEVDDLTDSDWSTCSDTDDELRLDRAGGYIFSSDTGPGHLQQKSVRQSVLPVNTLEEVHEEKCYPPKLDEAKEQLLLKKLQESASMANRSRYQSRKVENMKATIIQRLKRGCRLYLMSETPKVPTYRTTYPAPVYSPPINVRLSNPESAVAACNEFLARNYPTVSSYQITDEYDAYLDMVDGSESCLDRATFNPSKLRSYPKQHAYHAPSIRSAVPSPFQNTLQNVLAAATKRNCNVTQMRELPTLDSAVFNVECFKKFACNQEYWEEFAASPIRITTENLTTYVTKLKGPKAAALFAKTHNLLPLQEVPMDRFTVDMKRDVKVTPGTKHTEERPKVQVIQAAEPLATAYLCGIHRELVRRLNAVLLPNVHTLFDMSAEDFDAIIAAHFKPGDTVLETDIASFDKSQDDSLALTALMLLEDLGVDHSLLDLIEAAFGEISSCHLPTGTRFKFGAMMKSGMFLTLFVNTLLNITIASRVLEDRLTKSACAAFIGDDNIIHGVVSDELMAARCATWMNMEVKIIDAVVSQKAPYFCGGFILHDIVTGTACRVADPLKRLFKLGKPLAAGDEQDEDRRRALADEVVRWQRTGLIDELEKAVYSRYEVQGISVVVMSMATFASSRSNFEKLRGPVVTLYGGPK
Numbers without * were called inactive; i = inactive; ? = inconclusive; & = joins results of further samples; [ ] = another dose, or the depositor's remark. % is set by controls: 0 for no effect and ±100 for the full control effect; potency is the fitted concentration of half-maximal effect.

Molecule | nsP2pro primary
COc1ccc(CCN2CCC(CNC(=O)c3cnn(-c4ccc(C)cc4)c3C3CCN(C(=O)OC(C)(C)C)CC3)CC2)cc1 | 30.5%[activator]
Cc1ccc(S(=O)(=O)c2nc(-c3cccc(Cl)c3)oc2NCc2ccccc2)cc1 | 47.9%[activator]
O=C(NCc1ccc(F)c(F)c1)C1CN(C2CCCC2)C(=O)N1 (stereo not drawn) | i
COc1cccc(C2c3c(ncn(-c4ccc(C#N)cc4)c3=N)Oc3ccc4ccccc4c32)c1 (stereo not drawn) | -10.4%
Cc1ccc(S(=O)(=O)N2CCCC2C(=O)Nc2ccc(Br)cc2)cc1 (stereo not drawn) | -10.4%
O=C(Nc1cncc(-c2cccnc2)c1)c1cccs1 | i
O=C(Nc1cccc(C(F)(F)F)c1)c1cc(CN2CCOCC2)on1 | -14.9%
Cc1nnnn1CCC(=O)Nc1nn(C)c2cccc(N3CCOCC3)c12 | -15.5%
COc1ccc(C(=O)Nc2nnc(-c3ccco3)o2)cc1OC | -15.2%
COCc1c(Cl)ccc2c1CC[C@H]2c1ncc[nH]1 | 6.3%
Cc1cc(C)nc(NC(=S)N2CCN(c3ccc([N+](=O)[O-])cc3Cl)CC2)c1 | -6.2%
O=C(Nc1ccccc1)N1CCC(N2CCCNC2=O)CC1 | -1.9%[39.2 µM]
Cc1ccc2c(c1)C(c1ccccc1)N(C(=O)COc1ccc(Cl)cc1Cl)CC(=O)N2 (stereo not drawn) | -25.5%
S=C(NCCCc1cnc[nH]1)NCCCN(Cc1ccc(Cl)cc1)c1ccc(Br)cn1 | i
CCC(=O)N1CCC(n2nccc2NC(=O)Nc2ccccc2Cl)CC1 | 0.7%
CCOc1ccc(N(C(C)C(=O)NCCSc2ccc(C)cc2)S(C)(=O)=O)cc1 (stereo not drawn) | -16.3%
COCC1OC(OC(C)(C)C2CCC3(C)C=C(C4CCC5C4(C)CC(O)C4OC(C(C)(C)OC6OC(CO)C(O)C(O)C6NC(C)=O)CCC45C)CCC3O2)C(NC(C)=O)C(O)C1O (stereo not drawn) | -8.0%[5.1 µM]
CS(=O)(=O)c1cccc(-c2csc(N3CCC(C(N)=O)CC3)n2)c1 | 0.4%
CCOC(=O)C1CCCN(C(=O)C2CCc3nnc(C4CCN(C(C)=O)CC4)n32)C1 (stereo not drawn) | -10.7%[39.2 µM]
N#CN1CCC(NS(=O)(=O)c2cccc(F)c2)C1 (stereo not drawn) | -5.2%
Cc1cc(C)nc(NC(=S)N2CCN(Cc3cccc4ccccc34)CC2)c1 | -6.0%
O=C1NC(=NC2CCCC2)C2(CCN(Cc3cccnc3)C2)N1c1cc(F)cc(F)c1 (stereo not drawn) | -2.5%
O=C(Nc1ccc(N2C(=O)[C@@H]3[C@H](C2=O)[C@@H]2C=C[C@H]3C2)c(Cl)c1)c1ccccn1 | 26.9%
COc1ccc([C@H]2[C@H](c3ccccc3)C(=O)N2Cc2ccccc2)cc1COc1ccc(NC(C)=O)cc1 | -7.2%
Cc1ccc(-n2ncc3c(NCCCN4CCOCC4)ncnc32)cc1Cl | -5.2%
Cc1ccc(S(=O)(=O)NCCc2csc3nc(-c4ccccc4C)nn23)cc1 | -1.9%
COc1cccc(CNC(=O)c2cc(=O)[nH]c3ccc(S(=O)(=O)N4CCCC4)cc23)c1 | -20.1%
C[S+](=O)([O-])N1CC2(CCCCN2Cc2ccc(Cl)cc2)Cc2ccccc21 (stereo not drawn) | -5.1%
O=C(Nc1ccccc1)C1CCN(c2ncc(-c3ccc4c(c3)OCCCO4)s2)CC1 | -10.2%[78.4 µM]
c1csc(CNc2ccc(N3CCOCC3)cc2)c1 | 0.5%

The last 6 compounds of the section before come first, to join the parts:
Molecule | nsP2pro primary
Cc1ccc(-n2ncc3c(NCCCN4CCOCC4)ncnc32)cc1Cl | -5.2%
Cc1ccc(S(=O)(=O)NCCc2csc3nc(-c4ccccc4C)nn23)cc1 | -1.9%
COc1cccc(CNC(=O)c2cc(=O)[nH]c3ccc(S(=O)(=O)N4CCCC4)cc23)c1 | -20.1%
C[S+](=O)([O-])N1CC2(CCCCN2Cc2ccc(Cl)cc2)Cc2ccccc21 (stereo not drawn) | -5.1%
O=C(Nc1ccccc1)C1CCN(c2ncc(-c3ccc4c(c3)OCCCO4)s2)CC1 | -10.2%[78.4 µM]
c1csc(CNc2ccc(N3CCOCC3)cc2)c1 | 0.5%
CC1(C)C(=O)Nc2ccc(S(=O)(=O)N3CCCC(c4nn[nH]n4)C3)cc21 (stereo not drawn) | -4.9%
COCCNc1cc2c(cc1[S+](=O)([O-])Nc1ccc(C)c(C)c1)CCC(=O)N2 | -1.2%
Cc1ccc(-c2cc3c(ccn3C)c(C(=O)NCc3cccnc3)n2)cn1 | i
COc1nccnc1NS(=O)(=O)c1ccc(N)cc1 | 8.6%
Cc1ccc(OCCn2c(CCNC(=O)c3cccc4[nH]ccc34)nc3ccccc32)cc1 | -10.2%
CCCCc1cc(C[C@@H]2C[C@H](NC(=O)NCC)C2(C)C)no1 | -7.7%[39.2 µM]
CC(C)=CCC1=C(O)c2ccccc2C(=O)C1=O | ?
COc1ccc(C(=O)N2CCC(n3c(C)cnc3-c3ccncc3)C2)c(OC)c1 (stereo not drawn) | -2.4%
O=c1[nH]c(CCl)nc2sc3c(c12)CCC3 | i
COc1ccc(N2CCN(C(=S)Nc3cc(C)ccn3)CC2)cc1 | i
CC(C)c1cc(-c2ccc(F)c3ccccc23)nc(N)n1 | 15.5%
Cn1ncc2c(N3CCN(c4cccc(Cl)c4)CC3)ncnc21 | -26.9%
Cn1c2ccccc2c2cnn(CC(=O)NCCCN3CCCCC3)c(=O)c21 | -2.2%
Cc1ccc(S(=O)(=O)Nc2cnccc2C(=O)Nc2nc(-c3ccc4c(c3)CCCC4)cs2)cc1 | i
CC(C)=CCC[C@](C)(O)[C@H]1CC[C@]2(C)[C@@H]1[C@H](O)C[C@@H]1[C@@]3(C)CC[C@H](O)C(C)(C)[C@@H]3CC[C@]12C | -27.1%
COc1ccc(-c2nnc3n2N=C(c2ccc(OC)cc2OC)CS3)cc1 | i
O=C(Nc1nc2ccc(Cl)cc2s1)c1cc(=O)c2ccccc2o1 | ?
CCOc1ccccc1C(=O)Nc1c(C(=O)Nc2ccc(F)cc2)oc2ccccc12 | -8.3%
Cc1noc2ncnc(NCc3ccccc3Cl)c12 | -22.8%
CCOc1ccc(NC(=O)c2c(NC(=O)c3ccco3)sc3c2CCC(C(C)(C)C)C3)cc1 (stereo not drawn) | ?
O=C1CCCC2=C1[C@@]1(CCC(c3ccccc3)C1)N=C(Nc1nc3ccccc3o1)N2 (stereo partly drawn) | 1.8%&0.2%
CCN(C(=O)CCS(=O)(=O)c1cc(Br)cc2c1N(C(=O)C1CC1)CC2)c1cccc(C)c1 | -10.9%
N#Cc1nc(Nc2cccc3ccccc23)nc(NC2CCCC2)n1 | 4.8%
CCc1nc2c(c(-c3ccc(Cl)cc3)n1)CN([S+](C)(=O)[O-])CC2 | 0.3%[39.2 µM]
COc1ccc2[nH]cc(CCNC(=O)c3cnn(-c4ccccc4Cl)c3C3CCN(C(=O)OC(C)(C)C)CC3)c2c1 | -1.3%
O=C(NCc1ccccc1)Nc1ncnc2c1C(c1ccccc1)c1c(ccc3ccccc13)O2 (stereo not drawn) | -7.1%
Cc1nn2c(C)c(C(=O)NC(C)c3ccccc3)cnc2c1-c1ccc(F)cc1 (stereo not drawn) | -11.7%
O=C(O)c1cccc(NC(=O)c2cccc(S(=O)(=O)Nc3cccc(C(=O)O)c3)c2)c1 | -8.2%
C=C1CC23CC1(O)CCC2C1=CC2OC(=O)C(C)(C2O)C1C3C(=O)O (stereo not drawn) | ?
O=C(c1ccc(Cl)s1)N1CCC2(COc3ncccc3S(=O)(=O)N2)C1 (stereo not drawn) | -5.2%
Cc1c(C(N)=O)[nH]c2c1C(=O)CC(c1ccco1)C2 (stereo not drawn) | -17.2%
NCC(=O)CCC(=O)O | ?
COc1ccccc1CN[C@H]1CC(C)(C)[C@@H]2C[C@@](C)(O)CC[C@]12CCC(=O)NCCN1CCOCC1 | 4.6%
COc1cccc(CN2CCCC3(CCN(c4cc(C)nc(N)n4)C3)C2)c1OC (stereo not drawn) | -31.3%
Cc1ncccc1C(=O)N1CC[C@@H]2COCCN(Cc3ccncc3)[C@@H]2C1 | -27.3%
COc1ccc(CNc2nc(-c3ccco3)nn2S(=O)(=O)c2ccc3ccccc3c2)cc1OC | ?
O=C(CCS(=O)(=O)c1cccs1)Nc1ccc(C(=O)Nc2ccccc2F)cc1 | -9.7%
COc1ccc(N2CCN(C(=O)c3c(C)nn(-c4ccc(F)cc4)c3-n3cccc3)CC2)cc1 | -6.7%
COc1ccc(Cl)cc1NC(=O)CN1c2ccccc2S(=O)(=O)c2ccccc21 | -8.5%
CCOc1ccc(-c2c(C)nn3c(C)c(C(=O)NCCc4ccc(C)cc4)cnc23)cc1OCC | -11.9%
CC(C)=CCC[C@](C)(O)[C@H]1CC[C@]2(C)[C@@H]1[C@H](O)CC1[C@@]3(C)CC[C@H](O)C(C)(C)[C@@H]3[C@@H](O[C@@H]3O[C@H](CO)[C@@H](O)[C@H](O)[C@H]3O[C@@H]3O[C@H](CO)[C@@H](O)[C@H](O)[C@H]3O)C[C@]12C (stereo partly drawn) | ?
COc1ccc(C2CC(=O)c3cc(-c4nc(-c5cccc([N+](=O)[O-])c5)cs4)c(=O)n(-c4ccc(C)c(C)c4)c3C2)cc1 (stereo not drawn) | -6.1%
CC1=C(C(=O)Nc2ccc(C)cc2C)C(c2cccn2C)n2ncnc2N1 (stereo not drawn) | -15.7%
CC[C@H](NC(=O)[C@H](C)NC)C(=O)N1C[C@@H](O)C[C@H]1Cc1c(-c2[nH]c3cc(F)ccc3c2C[C@@H]2C[C@H](O)CN2C(=O)[C@H](CC)NC(=O)[C@H](C)NC)[nH]c2cc(F)ccc12 | 54.4%[activator][10 µM]
CNC(=O)N1CCC(C2CCN(C(=O)NCc3cccc(OC)c3)C2)CC1 (stereo not drawn) | -1.7%
COc1cccc(NC(=O)CCc2nc(-c3cccs3)no2)c1 | -11.3%
COc1ccc(-n2cnc3c(c2=N)C(c2cccc(OC)c2)c2c(ccc4ccccc24)O3)cc1 (stereo not drawn) | -11.7%
Cc1cc2oc(C(=O)Nc3nc(-c4ccccc4)ns3)c(C)c2cc1Cl | -19.4%
CCCNC(=O)[C@H]1O[C@@H]1C(=O)N[C@H](C(=O)N1CCC[C@H]1C(=O)OC)C(C)CC (stereo partly drawn) | ?
COc1cccc(C(=O)N2CCC3(CCNCC3)CC2)c1C | i
Oc1cc(NCc2ccc(Cl)cc2)cc2cccnc12 | 2.5%
COc1cccc(C2c3c(ncn(-c4ccc(-c5ccccc5)cc4)c3=N)Oc3ccc4ccccc4c32)c1 (stereo not drawn) | -9.6%
COc1ccc(Nc2cc(C)c3cc(NC(=O)c4ccccc4Cl)ccc3n2)cc1 | -7.8%
O=C(Cc1cccs1)NC1C(=O)N2C(C(=O)[O-])=C(C[n+]3ccccc3)CSC12 (stereo not drawn) | 3.3%
CCN(CC)CCCNC(=O)c1cn(C)c2ccc(S(=O)(=O)N3CCOCC3)cc2c1=O | -11.3%
Cc1cc(C)cc(NC(=O)Cn2c(=O)n(-c3ccc(C)c(C)c3)c(=O)c3oc4ccccc4c32)c1 | -15.8%
Cc1ccc(CNC(=O)C2CCN(c3ncnc4c3nc3n4CCCCC3)CC2)cc1 | -18.2%
O=C(Nc1ccc2oc(-c3cc(Br)ccc3Cl)nc2c1)c1ccc2ccccc2c1 | -19.1%
CC1CCC(NC(=O)c2cc3n(n2)CC(c2ccc(Cl)cc2)OC3)CC1 (stereo not drawn) | i
CC(C)(Oc1ccc(Cl)cc1)C(=O)OCCCOC(=O)C(C)(C)Oc1ccc(Cl)cc1 | 0.4%

Going on with the list:
Molecule | nsP2pro primary
COc1cccc(Cc2nc3ccccc3nc2SCC(=O)N2CCCCC2C)c1 (stereo not drawn) | -5.7%
COc1ccc(C2Nc3ccccc3C(=O)N2Cc2cccc(OC)c2OC)cc1COc1c(C)cc(NC(C)=O)cc1C (stereo not drawn) | i
CC(NC(=O)c1ccc2nc(CCc3ccccc3)oc2c1)c1ccccc1 (stereo not drawn) | -16.9%
CC(=O)NC1(C)CCN(Cc2cnc(-c3cccc(F)c3)s2)CC1 | 0.5%[39.2 µM]
CNC(=O)OCc1cccc(COC(=O)NC)n1 | -7.5%
Cc1ccc(-c2cnn(CC(=O)NCCc3ccccc3)c(=O)c2)cc1 | 4.7%
Cc1nn(Cc2ccccc2)c(C)c1[C@@H]1C=C[C@@H](NC(=O)NC(C)C)C1 | 14.1µM*
NC(=O)c1ccccc1C[C@H](C(=O)O)N1C(=O)c2ccc(C(=O)O)cc2C1=O | 1.8%
CCCC1(C2CCN(C(=O)Cc3ccc(OC)cc3)CC2)NC(=O)N(CCc2cccs2)C1=O (stereo not drawn) | -8.0%
COc1ccccc1-c1c(C)nn2c(-c3ccccc3)cc(-c3ccccc3)nc12 | -7.7%
O=C(O)C[C@@H]1CCN(C(=O)c2ccc(F)cc2)C[C@@H]1CCN1CCN(c2ccc(F)cc2)CC1 | -12.7%
Cc1noc(-c2ccccc2OC2CCNC2)n1 (stereo not drawn) | i
CC(C)(O)C#Cc1ccc(C(=O)N2CCOCC2CC(=O)O)o1 (stereo not drawn) | ?
CCOc1ccc(NCc2cccn2-c2nnc(N3CCC(C(=O)NC(C)c4ccccc4)CC3)s2)cc1 (stereo not drawn) | -20.8%

Screening results: PubChem, National Center for Advancing Translational Sciences (NCATS)

Not all compounds are listed, so the mix of outcomes need not match the whole.
